BJeLR lethal = BJeLR cell viability loss. BJeLR (HRASV12) viability, CellTiter-Glo ATP luminescence, 48 h; reference of the scale not given here. actives 0.17% (n = 300,000). inhibition, % (concentration not given with the values);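 active means replicate mean above 50%; inconclusive means above 50% but judged a plate artefact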;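 further: 50 nL library stock added to about 25 µL; numbers are from one replicate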
Sa RN4220 lethal = kills Staphylococcus aureus RN4220 | S. aureus RN4220 growth, OD600, 16 h | inhibition, % (test concentration not listed) | actives 0.33% (n = 330,000);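 active means z-score of -3 or lower and OD600 up to 0.18 on both plates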;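 further: plate controls were untreated cells for no effect and reference antibiotic for full effect; stock transfer was 100 nL into about 80 µL; one replicate is shown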
PrP UTR inh = suppresses PrP 5' UTR mRNA reporter expression; cell-based PrP 5' UTR mRNA reporter, plate reader; inhibition, % (concentration not given with the values); actives 0.35% (n = 340,000); AID 488862;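 active means every replicate at 50% or more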;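 further: 0 = median of the neutral control wells; tested in H4 reporter cells; numbers are from one replicate; inactives centre near -14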
Mtb hypoxia inh = Mtb hypoxia fluorescent reporter inhibition | M. tuberculosis hypoxia-regulated fluorescent reporter, fluorescence | fluorescence inhibition, % (concentration not given with the values) | actives 0.1% (n = 300,000) | AID 1159583;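 active means 35 to 45% if threefold the growth effect, above 45% if 1.5-fold the growth effect; inactive means the rest, general growth blockers included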;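 further: wells of about 50 µL received 100 nL stock; 0% = vehicle wells and 100% = reference inhibitor wells; whole bacteria with a GFP reporter of the hypoxia response; strong numbers were not always called active; many hits fall short of the cut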
ugtP null kill = compounds lethal to S. aureus RN4220 ugtP deletion mutant. AID 1259309. actives 0.54% (n = 330,000). growth inhibition, % (no concentration beside the values). OD600 growth, 16 h; some inactives read as strong as hits;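 active means z-score under -3 and OD600 up to 0.15 on both plates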;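 further: plate controls were untreated wells for no effect and antibiotic for full effect; wells of about 80 µL received 100 nL stock; the first replicate is given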
Autofluor counter = counter-screen for toxin protease inhibitors: compound fluorescence; fluorescence intensity (test concentration not listed); AID 624483; actives 3.1% (n = 360,000); compound autofluorescence counterscreen, microsphere flow cytometry; hits give high values;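 active means at least 3 SD above the mean of all compounds, about 16000 in these data; inconclusive means too few beads counted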;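 further: 100 nL of 1 mM stock went into each well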
Mtb hypoxia inh growth = second read-out of Mtb hypoxia inh, no call of its own (marks repeat the call); growth inhibition, %; measured here: M. tuberculosis growth (absorbance);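 0% = vehicle and 100% = reference antibiotic; read after six days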
Numbers without * were called inactive; ? = inconclusive; . = no result given; & = joins results of further samples.

No.	mol	BJeLR lethal	Sa RN4220 lethal	PrP UTR inh	Mtb hypoxia inh	Mtb hypoxia inh growth	ugtP null kill	Autofluor counter
1	CCCc1ccc(C(=O)CCC(=O)NNC(=O)c2ccncc2)cc1	4	1.6	-5	.	.	4	6167
2	CN(C)c1ccc(/C=N\NC(=O)CC#N)cc1	0	.	-31	.	.	.	4583
3	C(=N\c1ncnc2sccc12)/NOCc1ccccc1	1	.	5	.	.	.	2539
4	COc1ccc(-c2csc(NC(=O)c3cccc(S(=O)(=O)N4CCN(C)CC4)c3)n2)cc1	6	14	-31	4	15	-4	8679
5	COC(=O)c1cn(CC(=O)N2C(C)CCCC2C)c2ccccc12 (configuration not stated)	4	2.7	-12	5	4	-6	2942
6	O=C(Cc1n[nH]c(=O)[nH]c1=O)NN=Cc1cccc(Cl)c1	.	2.9	.	13	6	4	.
7	O=C(Nc1ccc2c(c1)OCO2)c1ccc(COc2ccc3c(c2)CCC3)o1	-8	4.7	-12	10	6	7	11305
8	CC(C)Cn1c2c(c(O)c(C(=O)Nc3ncccc3O)c1=O)CCCC2	-4	2.6	-15	.	.	-22	3113
9	CCCc1nnc(SCC(=O)Nc2ccccc2Cl)n1CC1CCCO1 (configuration not stated)	1	8.1	5	8	8	11	3126
10	CCOc1ccc(N2CC(=O)N/C2=N\c2nc(C)cc(C)n2)cc1	-6	-2.2	2	.	.	1	3028

Two compounds picked at random from those above, as already listed:
No.	mol	BJeLR lethal	Sa RN4220 lethal	PrP UTR inh	Mtb hypoxia inh	Mtb hypoxia inh growth	ugtP null kill	Autofluor counter
4	COc1ccc(-c2csc(NC(=O)c3cccc(S(=O)(=O)N4CCN(C)CC4)c3)n2)cc1	6	14	-31	4	15	-4	8679
8	CC(C)Cn1c2c(c(O)c(C(=O)Nc3ncccc3O)c1=O)CCCC2	-4	2.6	-15	.	.	-22	3113

Later entries:
No.	mol	BJeLR lethal	Sa RN4220 lethal	PrP UTR inh	Mtb hypoxia inh	Mtb hypoxia inh growth	ugtP null kill	Autofluor counter
11	O=c1[nH]c(Nc2ccc(F)cc2)cc2ccccc12	-2	-1.4	-23	5	16	-9	23479*
12	CCCCn1nc(C)c(C(=O)O)c1Cl	9	.	-21	.	.	.	4960
13	Cc1onc(-c2c(F)cccc2Cl)c1C(=O)OCc1cnc(Cl)s1	1	4.8	-23	3	13	3	4438
14	Cc1ccc(-c2csc3ncnc(Oc4cccc5ccc(C)nc45)c23)cc1	-1	-2.3	-26	1	2	13	2602
15	Cc1ccsc1C=NNC(=O)c1ccc2c(c1)OCCO2	.	11	.	9	2	1	.
16	S=C(Nc1ccccc1Cl)N1CCN(c2ccccn2)CC1	7	5.6	0	8	8	4	3869
17	COc1ccc(CCC(=O)NN=C(C)c2ccc3c(c2)OCO3)cc1	.	2.6	.	5	-4	3	.
18	COc1ccc(NCc2nnc(SCCN3CCCCC3)n2-c2ccc(C)cc2)cc1	9	-0.2	-18	4	4	3	2363
19	COc1cc(NC(=O)CCNC(=O)Cn2cnc3ccccc3c2=O)cc(OC)c1OC	3	-0.5	-8	6	-6	2	3333
20	C=CCOc1ccc(/C=N/NC(C)=O)cc1OCC	4	.	-9	.	.	.	2555
21	O=C1CCCC2=C1C(c1ccc(Cl)cc1)N1C(=O)CCSC1=N2 (configuration not stated)	-9	-2.3	-22	-3	-5	-4	3178
22	CCCOc1ccc(N2C(=O)CC(NCCNc3ccc([N+](=O)[O-])cn3)C2=O)cc1 (configuration not stated)	-6	1.8	-30	18	7	3	6085
23	COc1ccc(-n2ncc3c2CC(C)(C)CC3NC(=O)c2oc(C)cc2C)cc1 (configuration not stated)	0	9.8	-1	1	11	-5	5484
24	O=C(CCCCC(=O)Sc1ccccc1)Sc1ccccc1	.	-2.8	-22	4	6	11	3008
25	CC(C)(C)C1c2[nH]c3ccccc3c2CCN1CCCn1cccn1 (configuration not stated)	-6	3.6	-26	13	4	9	2753
26	COc1ccc(N2CCN(C(=O)c3c(-c4c(F)cccc4Cl)noc3C)CC2)cc1	-15	5.2	-13	12	-8	5	4838
27	Oc1c(Br)cc(Br)cc1C=Nc1ccc2[nH]ncc2c1	3	-3.3	0	-1	11	1	3389
28	CC(C(=O)Nc1ccc2ccccc2c1)C1C[C@]1(C)C(NC(=O)OCc1ccccc1)c1ccccc1 (some centres not stated)	.	-3.4	.	3	3	1	.
29	COC(=O)c1ccc(NC(=O)c2ccc[n+]([O-])c2)cc1	-1	2.1	-21	5	3	7	3478
30	COc1cccc(CN(C)C(=O)c2ccc(COc3ccc(Cl)cc3)cc2)c1OC	5	2.5	-36	10	0	-3	3867
31	CCOCCCNC(=O)CNC(=S)N(Cc1ccccc1F)C1CCCCC1	-6	6.3	-37	10	9	5	11350
32	COC(=O)c1ccc(/C=N/OCC(=O)Nc2cc(F)ccc2F)cc1	-9	.	-24	.	.	.	4535
33	CCC(Cc1ccccc1)NC(=O)/C=C/c1ccco1 (configuration not stated)	3	1.5	-8	20	14	3	4123
34	CCCCCCCC(=O)NNC(=O)CC(=O)Nc1ccccc1C(=O)O	-4	8.3	-15	-3	-3	21	1772
35	Oc1ccc(-c2[nH]ncc2-c2cccc3cccnc23)c(O)c1	1	3.8	-28	9	4	-12	10440
36	O=C(Nc1ccc2ccccc2n1)c1ccccc1Br	3	-5.1	-56	-3	-4	-15	6104
37	CC(C)(Oc1ccc(Cl)cc1)C(=O)NNC(=O)c1ccc(Br)o1	.	-1.4	-11	7	7	4	4991
38	O=C(Nc1ccccc1)C1C(c2ccccc2)C1(Cl)Cl (configuration not stated)	18	-2.7	-3	7	9	9	3748
39	CC(Sc1nncs1)C(=O)Nc1ccc(S(=O)(=O)Nc2ncccn2)cc1 (configuration not stated)	.	-0.4	-7	2	-3	4	5778
40	ON=C1CCCc2ccc(Cl)cc21	.	1.6	.	-5	-4	11	.
41	COc1ccc2nc(N3CCC(C)CC3)c(C#N)cc2c1	-5	3.9	-80	12	9	89*	3766
42	CC=C1COC(C(=O)NCc2ccccc2)(C(F)(F)F)C=C1C=C1CCCCC1 (configuration not stated)	.	0.3	.	5	7	19	.
43	O=c1oc2ccc(C#CC3(O)CCCCC3)cc2cc1-n1cc(-c2ccsc2)nn1	.	5.1	4	3	5	2	3916
44	CCOc1ccc(N(CC(=O)NCCOc2ccccc2OC)S(=O)(=O)c2ccccc2)cc1	4	6.6	-4	0	11	4	6242
45	COc1cccc2cc(C(=O)Nc3ccccc3Cl)c(=NNS(=O)(=O)c3ccccc3)oc12	.	0.5	.	9	1	-2	.
46	C=CCNC(=S)NNC(=O)c1ccc(=O)n(Cc2ccccc2)c1	-1	6.6	-5	7	1	13	3976
47	O=C(NN=Cc1cccc(OC(=O)c2ccco2)c1)c1ccc2c(c1)OCO2	.	6.4	.	1	7	2	.
48	N#Cc1ccc(OCc2nnc(SCC(=O)c3ccccc3)n2-c2ccccc2)cc1	-13	6.3	-5	10	9	-11	2527
49	Cc1ccc(NC(=O)Nc2ccccc2C#N)c(Cl)c1	-3	2.4	-17	14	10	4	4241
50	O=C(NCc1ccccc1)C1=C[C@@H](c2ccccc2)C[C@@H](OCc2ccc(CO)cc2)O1	-2	.	-20	.	.	.	3773
51	COc1ccc(-c2cn[nH]c2N)cc1	3	4.0	-22	9	0	11	3390
52	C=CCSc1ncnc2c1oc1nc3c(cc12)COC(C)(C)C3	-20	2.2	-37	9	8	5	5360
53	O=C(c1cc(-c2ccco2)on1)N1CCOCC1	.	1.1	-22	2	0	-1	8202
54	COc1cccc(CSc2nnc(-c3ccncc3)n2N)c1	4	7.3	-17	6	3	7	2953
55	CCCCNC(=O)NC(C(=O)OC)C12CC3CC(CC(C3)C1)C2 (configuration not stated)	-3	2.1	-10	-1	3	4	2573
56	Cc1ccc2c(c1)C1CN(C)CCC1N2S(=O)(=O)c1ccc(F)cc1 (configuration not stated)	.	5.1	.	6	5	-6	.
57	C=CCNc1nc(-c2ccc([N+](=O)[O-])cc2)cs1	-9	1.5	-82	12	0	13	2561
58	O=C(OCc1cccc(C(F)(F)F)c1)c1cc([N+](=O)[O-])ccc1N1CCOCC1	-1	3.4	-17	-3	3	-7	?
59	O=S(=O)(O)c1cc2onnc2c2ccccc12	.	-0.4	-18	0	2	-2	3362
60	Cc1[nH]c(C)c(S(=O)(=O)N2CCN(c3ccc(Cl)cc3)CC2)c1C(=O)N1CCCC1	-4	4.4	-9	-4	-5	0	5431

Next section.
No.	mol	BJeLR lethal	Sa RN4220 lethal	PrP UTR inh	Mtb hypoxia inh	Mtb hypoxia inh growth	ugtP null kill	Autofluor counter
61	COc1cc(NC(=O)C2CCCN(S(=O)(=O)c3ccc4[nH]c(=O)ccc4c3)C2)cc(OC)c1 (configuration not stated)	3	3.0	-10	4	1	-1	6717
62	CC(C)(C)OC(=O)CNC(=O)c1[nH]cnc1C(=O)N[C@@H](CCCCNC(=O)OC(C)(C)C)C(=O)OC(C)(C)C	-7	.	-17	.	.	.	3598
63	CC(=O)c1ccc(Oc2cc(C)nc(NCc3ccccc3)n2)cc1	5	-1.7	-1	.	.	-9	2321
64	CCOc1ccc(NC(=O)Cn2cc(C(=O)C3CC3)c3ccccc32)cc1	-14	-0.9	-14	6	2	6	3858
65	c1ccc(COc2ccccc2CNCc2cccnc2)cc1	9	3.5	-18	2	7	-4	7498
66	Cc1oc2c(c1C(=O)NC(Cc1c[nH]c3ccccc13)C(=O)O)CCCC2 (configuration not stated)	-9	4.8	-23	16	6	1	10217
67	COc1cc(NC(=O)CCS(=O)(=O)c2ccc3c(c2)oc(=O)n3C)cc(OC)c1OC	-5	1.8	2	21	8	4	6082
68	CCCN1CCC(NC(=O)Nc2ccc([N+](=O)[O-])cc2)CC1	-6	5.2	-11	-2	-6	-1	3610
69	O=C(CNC(=O)c1ccco1)N/N=C/c1ccc(O)c([N+](=O)[O-])c1	-2	.	-26	.	.	.	2174
70	O=C(Nc1ccc(Cl)cc1F)C1CC1	-5	0.6	-17	5	6	2	2356
71	CN(C)c1ccnc(-n2cccc2/C=N/O)c1C#N	-3	.	-15	.	.	.	3518
72	O=C(CN1CCN(c2ncc(C(F)(F)F)cc2Cl)CC1)N1CCN(c2ncc(C(F)(F)F)cc2Cl)CC1	9	-6.6	-2	.	.	17	5160
73	O=C(c1ccccc1)N1CCN(C(=O)c2ccncc2)CC1	-2	5.5	-26	15	2	17	3353
74	CC(=O)/C=N/Nc1ccccc1	-1	.	-14	.	.	.	10681
75	Clc1ccc(/C=N/N2CCCCC2)cc1	-4	.	-81	.	.	.	3519
76	CC(C)OC(=O)C[N+](C)(C)CCN1C(=O)C2C(c3ccccc3)C=CC(c3ccccc3)C2C1=O (configuration not stated)	-4	3.5	10	-1	-3	13	4520
77	COc1cc2sc(NC(=O)c3ccco3)nc2cc1Cl	-4	0.9	-46	-4	-4	2	3121
78	CC(C(=O)NC(C)(C)C)N(C(=O)CS(=O)CC(=O)Nc1ccc(F)cc1)c1ccccc1F (configuration not stated)	9	0.4	-17	12	9	5	4437
79	COc1ccc2cc(C3=CCCCC3)ncc2c1	.	13	-36	3	7	19	5200
80	OCc1ccccc1CN1CCCCCC1	1	2.2	-27	4	2	3	4572
81	N/C(Cc1cccs1)=N\OC(=O)COc1ccc(Cl)cc1Cl	3	3.1	-38	.	.	15	2690
82	Nc1cc([N+](=O)[O-])cc2oc(-c3ccccc3)cc12	0	4.8	-39	20	9	68	5324
83	COc1ccc(NC(C)=O)cc1NC(C)C(=O)Nc1cccc(S(=O)(=O)N2CCOCC2)c1 (configuration not stated)	.	5.0	-21	-3	-3	3	3776
84	COCCNC(=S)NN=C1CC(C)CC(C)(C)C1 (configuration not stated)	.	9.7	.	10	5	6	.
85	N=c1c2ccccc2nnn1-c1ccc(C(F)(F)F)cc1	-2	2.1	-27	3	-5	0	2609
86	CC(=O)Nc1ccc(C(=O)Nc2ccc3c(c2)OCO3)cc1	-5	4.7	-7	14	14	-7	8018
87	O=c1c2cc(Cl)ccc2nc(-c2ccccc2Cl)n1O	-5	17	-21	12	12	3	4164
88	CC1(C(=O)N2CC3(CC(c4cccc(NC(=O)COc5ccc(Cl)cc5)c4)=NO3)C[C@@H]2C(N)=O)CC1 (some centres not stated)	-9	.	-20	.	.	.	4106
89	CN(Cc1ncc[nH]1)C(=O)c1cc(COc2c(F)cccc2F)on1	2	-1.0	-26	1	6	-7	2526
90	CC(=O)Nc1nc(C)c(-c2csc(Nc3ccccn3)n2)s1	-3&3	29	-78&-77	14	9	50	5005&4346
91	CCc1cc(=O)[nH]c(SCc2cccc3ccccc23)n1	-16	4.6	-32	2	-10	-12	5187

No enrichment for hits, and some 4% of all compounds hit somewhere here.
